RecA splice inh = Mtb RecA intein splicing inhibition. inhibition, %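 (about 9 µM by stock and volumes)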. P9WHJ3. AID 2221. 0.75% of 290,000 active. cell-free RecA intein splicing, fluorescence; in the data active means inhibition above about 30%; inconclusive means no clear call, values can overlap the other calls;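 further: 0% = vehicle wells and 100% = reference inhibitor control wells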
Target sequence (P9WHJ3 whole entry, looked up, canonical isoform): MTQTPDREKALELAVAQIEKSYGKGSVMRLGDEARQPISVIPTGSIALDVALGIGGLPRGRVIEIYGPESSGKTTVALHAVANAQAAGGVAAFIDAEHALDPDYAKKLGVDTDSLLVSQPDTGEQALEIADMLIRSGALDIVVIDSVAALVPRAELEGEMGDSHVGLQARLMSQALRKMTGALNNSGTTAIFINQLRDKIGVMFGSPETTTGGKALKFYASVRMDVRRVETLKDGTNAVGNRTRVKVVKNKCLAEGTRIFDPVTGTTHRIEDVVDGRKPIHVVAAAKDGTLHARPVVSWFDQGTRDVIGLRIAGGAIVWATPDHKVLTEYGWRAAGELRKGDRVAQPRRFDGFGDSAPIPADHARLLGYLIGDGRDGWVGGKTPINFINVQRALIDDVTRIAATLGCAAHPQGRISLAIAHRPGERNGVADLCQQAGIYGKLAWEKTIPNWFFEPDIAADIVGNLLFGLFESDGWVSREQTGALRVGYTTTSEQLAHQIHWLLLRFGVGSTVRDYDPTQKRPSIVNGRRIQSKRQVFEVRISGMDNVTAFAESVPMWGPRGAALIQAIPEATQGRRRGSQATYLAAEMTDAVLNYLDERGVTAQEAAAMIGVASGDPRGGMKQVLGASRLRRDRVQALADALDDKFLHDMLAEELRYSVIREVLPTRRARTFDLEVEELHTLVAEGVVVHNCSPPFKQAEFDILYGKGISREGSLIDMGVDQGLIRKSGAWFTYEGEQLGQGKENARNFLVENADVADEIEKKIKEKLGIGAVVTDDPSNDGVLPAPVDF
Mtb bLac sens = beta-lactam sensitization of Mtb H37Rv. inhibition, % at 25 µM. M. tuberculosis H37Rv growth with meropenem, percent inhibition; hits of this screen are not shown here. 0.27% of 330,000 active;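 active means about 74% or more and at least 40 points above the plate without the antibiotic, then above 30% in a dose series; inconclusive means first-round hits that could not be retested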;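 further: growth measured after seven days incubation then overnight dye step; 0% = bacteria only wells and 100% = bacteria with antibiotic; twin plates without the antibiotic show which effects depend on it; some results filed as inactive read as strong as hits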
Mtb H37Rv = M. tuberculosis H37Rv growth inhibitors, H37Rv strain (AID 1626); M. tuberculosis H37Rv growth inhibition; higher % means a stronger effect; inhibition, % at 10 µM, or IC50 in µM where a hit was titrated; 0.95% of 220,000 active;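 active means confirmed in a dose series; inconclusive means inhibition above 80% but not taken into the dose series; inactive means below 80% or under 30% at every dose of the series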;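 further: bacteria incubated seven days before Alamar blue readout; 0% = bacteria only wells and 100% = bacteria with antibiotic wells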
Arbovirus anti = antivirals against arbovirus infection | arbovirus infection cell-based antiviral screen | inhibition, % at 10 µM | 0.37% of 200,000 active;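 active means inhibition from about 30%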;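 further: bluetongue infection of BSR cells; cell survival read as ATP light after 72 h; 0% = infected wells without compound and 100% = uninfected wells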
YopH PTP inh = inhibitors of Yersinia enterocolitica YopH tyrosine phosphatase. fluorescence Ex485/Em525. inhibition, %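 (about 10 µM by stock and volumes)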. 0.16% of 140,000 active. AID 898;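 active means inhibition of 50% or more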;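 further: controls were vehicle for no effect and minimum signal wells for full effect; inactives centre near -20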
Arbovirus anti repeat = also measured in Arbovirus anti; calls as there; inhibition, %; measured here: 10K subset replicate screen; many hits read low in the repeat;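 first of two repeat runs on a subset; 0% = infected and 100% = uninfected wells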
* marks the source's active call; other numbers are inactive results; ? = inconclusive; · = not tested or not shown. Some of the compounds tested (hit frequency here may not be typical).

SMILES | RecA splice inh | Mtb bLac sens | Mtb H37Rv | Arbovirus anti | YopH PTP inh | others
O=C(CNCc1ccc(F)cc1)Nc1ccc(C(=O)N2CCCCC2)cc1 | 1.5 | -6 | · | · | ·
CSc1nnc(-c2ccccc2)n1C | -3.2 | 14 | -9% | -1 | 22
COc1cc2c(cc1OC)C(=S)NC(C)(C)C2 | -2.1 | 0 | -6% | 3 | -11
C=CCn1c(=S)[nH]c2sccc2c1=O | -2.8 | 3 | -4% | -7 | ·
COc1ccc(OC)c2sc(NC(=O)c3ccc(Br)s3)nc12 | -1.7 | 5 | 12% | 3 | -31 | Arbovirus anti repeat=2
CCCOc1ccc(-c2nc(OC)c3ccccc3n2)cc1 | 1.7 | 98 | 77% | 3 | -1
O=C(Nc1cccnc1)c1ccco1 | -3.7 | -3 | -3% | 1 | 0
Cn1nc([N+](=O)[O-])nc1Sc1nnnn1-c1cccc(C(=O)O)c1 | 4.0 | -8 | -9% | · | ·
N#CCC(=O)N/N=C/c1cc(Br)ccc1OCc1cccc2ccccc12 | 11 | 17 | · | · | ·
C=CCNc1sc(C(=O)c2ccc(C)cc2)c(N)c1C#N | -1.2 | 17 | -1% | -4 | -4

Ordered by count of non-hydrogen atoms (rising): part of the list above.
SMILES | RecA splice inh | Mtb bLac sens | Mtb H37Rv | Arbovirus anti | YopH PTP inh | others
CSc1nnc(-c2ccccc2)n1C | -3.2 | 14 | -9% | -1 | 22
COc1cc2c(cc1OC)C(=S)NC(C)(C)C2 | -2.1 | 0 | -6% | 3 | -11
C=CCNc1sc(C(=O)c2ccc(C)cc2)c(N)c1C#N | -1.2 | 17 | -1% | -4 | -4
COc1ccc(OC)c2sc(NC(=O)c3ccc(Br)s3)nc12 | -1.7 | 5 | 12% | 3 | -31 | Arbovirus anti repeat=2
O=C(CNCc1ccc(F)cc1)Nc1ccc(C(=O)N2CCCCC2)cc1 | 1.5 | -6 | · | · | ·

Next compounds.
SMILES | RecA splice inh | Mtb bLac sens | Mtb H37Rv | Arbovirus anti | YopH PTP inh | others
COc1ccccc1NC(=O)C1=C(C)Nc2nnnn2C1c1ccccn1 (centres undefined) | -0.7 | 47 | -1% | -8 | -18
CNC(=S)N1CCC(NC(=O)c2ccco2)CC1 | -3.4 | -11 | 10% | · | ·
COc1ccc2cc(S(=O)(=O)NCc3cccnc3)ccc2c1 | 4.5 | -6 | · | · | ·
Cc1ccc(C(=O)N2CCN(Cc3ccc4c(c3)OCO4)CC2)cc1[N+](=O)[O-] | -1.3 | 1 | 4% | -5 | ·
O=S(=O)(O)c1cccc2c(N=Nc3ccc(O)c4ncccc34)cccc12 | 10 | 9 | · | · | ·
Cc1cc(C)n(CCNC(=O)CC2C(=O)NCCN2Cc2ccc(C)o2)n1 (centres undefined) | -2.3 | -9 | 2% | 0 | ·
CCn1nc(C(=O)OCC(=O)c2cc(C)n(Cc3cccs3)c2C)c2ccccc2c1=O | 2.9 | -3 | -4% | 2 | -86
N#CC1=C2N=C(N)c3c(sc4c3CCCCC4)N2C2=C(C(=O)CCC2)C1c1ccccc1 (centres undefined) | 2.0 | 3 | -7% | -10 | -10
COc1ccccc1N(C)S(=O)(=O)c1ccc(C(=O)NC2CCCCCC2)cc1 | 5.5 | -2 | 11% | · | ·
C=CCOc1c2ccc(C(=O)NCCc3ccc(C)cc3)cc2nn1C | -1.2 | 7 | -8% | 0 | -36
Cc1ccc(CNC(=O)CCC2CCCN(Cc3c(C)nn(C(C)C)c3C)C2)o1 (centres undefined) | 1.8 | 2 | -12% | -6 | ·
NC(=O)c1ccc(-c2ccc(Br)cc2)o1 | · | 98 | ? | 1 | -32
CCOC(=O)N1CCN(C(=O)c2ccc(C)c(S(=O)(=O)Nc3cccc(C)c3C)c2)CC1 | 1.3 | -4 | -5% | 4 | 17
COC(=O)c1sc(SC)c(S(=O)(=O)C(C)C)c1N/N=C(\C#N)S(=O)(=O)c1ccccn1 | 3.1 | 3 | -10% | · | ·
COc1ccc2c(=O)c3c(=O)n(Cc4ccco4)c(-c4ccco4)nc3oc2c1 | -8.4 | 9 | 0% | 3 | -1
CCOc1ccc(N(CC(=O)N2CCOCC2)S(=O)(=O)c2ccc(F)cc2)cc1 | -2.1 | -4 | · | · | ·
O=S(=O)(c1cccc2nsnc12)N1CCCC1 | -2.7 | -1 | 4% | 9 | -21
Cc1ccnc(NS(=O)(=O)c2ccc(NS(=O)(=O)c3ccccc3)cc2)n1 | 2.4 | 1 | -1% | -3 | -15
O=C(c1ccccc1)c1ccc(N=Nc2c(O)[nH]c(=O)[nH]c2=O)cc1 | · | -4 | 0% | -7 | ·
CC(=O)Nc1nc(-c2ccc(Cl)cc2)nc(C)c1C(C)=O | -0.1 | 1 | -8% | -8 | -33
CN(C)S(=O)(=O)n1cc(/C=C(\NC(=O)c2ccccc2F)C(=O)NCCCN2CCOCC2)c2ccccc21 | 0.9 | 9 | · | · | ·
CCCCC(CCCC)=N/N=C/c1c(O)n(CC)c2cc(C3=NNC(=O)CC3)ccc12 | -4.2 | 11 | -1% | -5 | -30
CN1CCN(C(=O)/C(=C\c2cccs2)NC(=O)c2ccco2)CC1 | 1.2 | -3 | 0% | 0 | -18
COc1ccccc1-c1cn(-c2ccccc2)c(=S)[nH]1 | 2.2 | -7 | · | · | ·
COc1ccc(Br)cc1S(=O)(=O)Nc1ccc(Cl)cn1 | 0.0 | -8 | · | · | ·
CCOC(=O)c1cn(-c2ccccc2CO)c2c(F)c(F)c(F)cc2c1=O | 1.4 | -2 | -9% | 7 | -39
CCOC(=O)c1cnc2ccc(C)cc2c1OCc1cc(F)cc(F)c1 | -3.3 | -2 | 4% | -7 | -16
Cc1cc(C)c(NC(=O)CN2CCCCCC2)c(C)c1 | -2.3 | -1 | · | · | ·
COc1cc2c(cc1OC)CN(C(=O)c1cccc([N+](=O)[O-])c1)CC2 | -1.8 | 0 | -5% | · | ·
O=C(COC(=O)COc1ccc(Nc2ccccc2)cc1)NCc1ccco1 | 0.8 | 100 | 2% | -7 | -36
CC(C[N+](C)(C)C)OC(=O)C1(c2ccccc2)CCCC1 (centres undefined) | -1.6 | 7 | -3% | · | ·
Nc1nc(Cl)cc(=O)n1Cc1ccc(Cl)cc1 | 1.4 | -9 | · | · | ·
Cc1ccc(N2C(=O)CC2(C#N)c2ccc(OCc3ccccc3)cc2)cc1 (centres undefined) | 26 | -15 | -5% | -5 | -17
CCOc1ccc(C2Oc3nc(SC)nnc3-c3ccccc3N2C(C)=O)cc1OC (centres undefined) | 0.8 | 2 | 10% | -2 | -40 | Arbovirus anti repeat=0
FC(F)(F)c1cccc(Cc2noc(CN3C[C@@H]4CCC[C@H]3C4)n2)c1 | -0.9 | 1 | 5% | 2 | ·
CC(C)(C)OC(=O)CN1C(=O)NC(Cc2c[nH]c3ccccc23)C1=O (centres undefined) | 1.3 | -1 | · | · | ·
Cc1cc(C)cc(NC(=O)C(NCC2CCCO2)c2ccccc2)c1 (centres undefined) | -2.6 | 2 | 3% | -4 | -25
CC(=C/c1ccccc1)/C=N/n1c(-c2ccco2)n[nH]c1=S | 5.4 | -3 | -9% | 12 | 0
C=CCNC(=O)C1CCN(S(=O)(=O)c2ccccc2)CC1 | -2.3 | 8 | -5% | -1 | -20
Cc1nn(-c2ccccc2)c(C)c1/C=N/n1c(-c2ccccc2Br)n[nH]c1=S | 15 | -3 | 1% | · | ·
CC1CCCCC1NC(=O)C1CCN(S(=O)(=O)N2CCOCC2)CC1 (centres undefined) | -1.3 | -6 | 0% | -2 | -34
O=C(COC(=O)C1CCN(c2ccc(C(F)(F)F)cn2)CC1)c1ccc(F)cc1 | 2.1 | 12 | · | · | ·
COc1ccc(CCNC(=O)C2CCC(=O)N(CCc3ccc(OC)cc3)C2)cc1 (centres undefined) | 0.1 | 1 | · | · | ·
CN(CC(=O)NCc1ccncc1)S(=O)(=O)c1ccc2ccccc2c1 | -1.2 | 0 | -1% | 23 | ·
CC(C)(C)c1ccc(C(=O)Nc2ccccc2C(=O)NCCN2CCOCC2)cc1 | -1.8 | 86 | · | · | ·
O=C(c1ccco1)N1CCN(Cc2cccc([N+](=O)[O-])c2)CC1 | -2.5 | -1 | 1% | 1 | ·
Nc1nc(Cl)cc(Oc2ccccc2F)n1 | -1.0 | 8 | 5% | · | ·
Cc1cc(NC(=O)COC(=O)C2CCN(S(=O)(=O)c3ccc(Cl)cc3)CC2)no1 | -1.5 | 2 | -5% | 7 | -53 | Arbovirus anti repeat=0
NC(=O)C1(N2CCCCC2)CCN(C(=S)Nc2ccc(F)c(Cl)c2)CC1 | -0.6 | -10 | -2% | -4 | ·
COc1ccc(NC(=O)C2C3C=CC4(O3)C2C(=O)N(CCCN2CCCCC2)C4C(=O)NC2CCCC(C)C2C)cc1 (centres undefined) | 2.3 | 0 | · | · | ·

More structures follow:
SMILES | RecA splice inh | Mtb bLac sens | Mtb H37Rv | Arbovirus anti | YopH PTP inh | others
NC(=O)CSc1nnc(-c2cccs2)n1-c1ccccc1 | -5.7 | 7 | 0% | -2 | -1
COc1cccc(/C=N/n2c(COc3ccccc3)n[nH]c2=S)c1O | 0.5 | ? | · | · | ·
O=C(c1ccco1)n1nc(-c2cccnc2)nc1NCc1ccco1 | 6.2 | 2 | -17% | -2 | ·
N#Cc1c(NC(=O)CSc2nc(N)cc(=O)[nH]2)sc2c1CCCC2 | 9.1 | 6 | -7% | -3 | ·
CC1=NN(C(=O)c2ccc(C)cc2)C(O)(C(F)(F)OC(F)(F)F)C1 (centres undefined) | 2.1 | 0 | 5% | -12 | -34
COc1cccc(/C=N/NC(=O)c2c(C)nc3ccc(Cl)cn23)c1OC | -0.2 | -7 | · | · | ·
C=CCN(CC=C)S(=O)(=O)c1ncn[nH]1 | -5.0 | 0 | 3% | 1 | -53
COc1ccc(-c2csc3ncnc(N4CCN(C(=O)c5ccco5)CC4)c23)cc1 | 8.2 | 1 | · | · | ·
C/C(=N\NC(=O)c1c[nH]c2ccccc12)c1ccco1 | 2.9 | 5 | -4% | -3 | -63
CSc1cccc(NC(=O)c2ccc(CN3CCc4ccccc4C3)cc2)c1 | 8.0 | 13 | · | · | ·
CC(=O)Nc1ccc(NC(=O)C(C)OC(=O)C2CC3C=CC2C3)cc1 (centres undefined) | 1.4 | -1 | -1% | 2 | -13
CCOC(=O)c1c(C)[nH]c(C)c1C(=O)CSc1nc2ccccc2c(=O)n1-c1ccc(CC)cc1 | 6.5 | 9 | 31% | -4 | -23
Cc1cc(=O)oc2cc(OCCc3ccccc3)ccc12 | 5.7 | 2 | · | · | ·
COc1ccccc1/C=C1\SC(=S)N(CCC(=O)Nc2nnc(C)s2)C1=O | -0.2 | 14 | · | · | ·
COc1ccc(CCNC(=O)C/C(C)=N/NC(=O)c2ccc(Cl)cc2Cl)cc1OC | 0.1 | 4 | · | · | ·
Cc1c(/C(O)=C2/C(=O)C(=O)N(CCN3CCOCC3)C2c2cccnc2)cnn1-c1ccccc1 (centres undefined) | -1.9 | 3 | 2% | 3 | -22
COC(=O)c1cn(-c2cccc(C)n2)cn1 | -2.5 | 19 | 3% | 3 | ·
Cc1csc(Sc2ccc([N+](=O)[O-])cc2C(=O)OCC(=O)NC(=O)NC(C)(C)C)n1 | 6.1 | -2 | 1% | 6 | -3
O=C(NC(=S)NCCC1=CCCCC1)c1ccccc1Br | 0.6 | 1 | 9% | 37* | ·
COC(=O)C1CSC(C(=O)OC)N1C(=O)CN1CC(C)OC(C)C1 (centres undefined) | 2.7 | -2 | -6% | 1 | 1
O=C(NCCC1CCCCN1S(=O)(=O)c1cccs1)C(=O)Nc1cccc(F)c1 (centres undefined) | 3.0 | 3 | · | · | ·
CCOC(=O)C1=C2NC(=O)c3ccccc3N2C(=O)C1 | -4.4 | -5 | -12% | 19 | ·
Cn1c(N)c(C(=O)c2cc(-c3ccncc3)nc3ccccc23)c(=O)n(C)c1=O | -0.7 | 3 | 1% | 1 | ·
O=c1[nH]c(=S)n(Cc2ccc(F)cc2)c(O)c1/C=N/N1CCCCCC1 | 5.0 | 10 | 2% | 11 | -12
O=C(O)CCc1nnc(SCC(=O)Nc2ccc(Br)cc2)[nH]c1=O | 0.6 | 9 | -13% | 7 | ·
CCOC(=O)c1c(C)n(C)c2ccc(OC)c(NC(=O)CN3CCN(Cc4ccccc4)CC3)c12 | · | -11 | · | 3 | -33
COc1ccc(C2=Nn3c(nnc3-c3ccncc3)SC2)cc1 | 0.5 | 15 | -4% | 23 | -13
Cc1nc(-c2ccc(Cl)cc2)sc1C1(C)CC(c2cccc(F)c2)=NO1 (centres undefined) | -2.1 | -1 | -9% | · | ·
O=C(O)Cc1ccc(C(=O)c2ccc(Cl)cc2Cl)s1 | -1.0 | 6 | -5% | 0 | ·
Cc1ccc(C)c(NS(=O)(=O)c2ccc3[nH]c(=O)oc3c2)c1 | -5.9 | 1 | 0% | -1 | ·

Screens deposited in PubChem BioAssay by several laboratories.
